Polio RdRp inh: poliovirus RNA polymerase inhibition; P03300; poliovirus polymerase elongation, fluorescence polarization; active compounds read low; % elongation, % (compound at 16.7 µg/mL); actives 0.66% (n = 150,000); AID 588519; in the data active means % elongation below about 90%; further: some results filed as inactive read as strong as hits
Target sequence (P03300 1749-2209 limits assumed): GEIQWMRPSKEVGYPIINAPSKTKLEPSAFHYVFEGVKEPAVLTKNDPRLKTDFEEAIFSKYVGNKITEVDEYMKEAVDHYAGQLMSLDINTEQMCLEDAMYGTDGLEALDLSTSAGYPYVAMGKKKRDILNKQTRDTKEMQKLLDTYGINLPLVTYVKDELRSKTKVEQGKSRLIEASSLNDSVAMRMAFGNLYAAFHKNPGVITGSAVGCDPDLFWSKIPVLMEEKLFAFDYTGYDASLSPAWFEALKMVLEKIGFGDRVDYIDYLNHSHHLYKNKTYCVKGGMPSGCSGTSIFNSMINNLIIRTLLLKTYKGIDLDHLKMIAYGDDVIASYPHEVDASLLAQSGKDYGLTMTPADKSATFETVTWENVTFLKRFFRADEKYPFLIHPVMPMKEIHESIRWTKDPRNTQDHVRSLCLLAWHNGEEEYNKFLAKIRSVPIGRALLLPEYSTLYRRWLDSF
Mtb MbtI inh: inhibitors of Mycobacterium tuberculosis siderophore enzyme MbtI. P9WFX0. purified MbtI enzyme, fluorescence intensity read-out. inhibition, %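 (about 17 µg/mL by stock and volumes)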. actives 0.89% (n = 100,000);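 active means above 50% in both replicates, above 80% if mildly self-fluorescent; inactive means the rest, strongly fluorescent compounds included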;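 further: 0% = mean of negative and 100% = mean of positive controls; one replicate is shown; some compounds called inactive have numbers as strong as hits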
Mtb MenB inh: inhibitors of Mycobacterium tuberculosis MenB enzyme; P9WNP5; inhibition, %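 (about 12 µg/mL by stock and volumes)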; actives 0.43% (n = 100,000); MenB enzyme assay, absorbance read-out; some hits fall short of the stated cut;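 active means mean of two replicates above 30%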;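 further: 0% = no compound and 100% = wells with inactive enzyme; the first replicate is given; strong numbers were not always called active; inactives centre near -10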
Target sequence (P9WNP5 whole entry, looked up): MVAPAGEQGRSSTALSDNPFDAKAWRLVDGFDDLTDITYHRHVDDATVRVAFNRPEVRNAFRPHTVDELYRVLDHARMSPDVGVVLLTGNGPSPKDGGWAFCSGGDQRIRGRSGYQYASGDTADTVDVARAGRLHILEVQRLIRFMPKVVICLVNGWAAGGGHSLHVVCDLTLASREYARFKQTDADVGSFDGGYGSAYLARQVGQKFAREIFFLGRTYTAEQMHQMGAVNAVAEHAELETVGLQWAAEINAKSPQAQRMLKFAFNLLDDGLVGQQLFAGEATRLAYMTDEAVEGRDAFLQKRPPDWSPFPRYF
Polio RdRp inh intensity: second read-out of Polio RdRp inh, no call of its own (marks repeat the call); % elongation; measured here: total intensity read-out; formula for this scale not given here;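 total fluorescence in place of polarization; lower means less elongation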
An asterisk follows results filed as active; i = inactive; nt = not tested or not shown; & = joins results of further samples.

Every second line gives: Polio RdRp inh, Polio RdRp inh intensity, Mtb MbtI inh, Mtb MenB inh
(1) Cc1cc(C)n2nc(SC(C)C(=O)NCc3ccc4c(c3)OCO4)nc2n1 (stereo unspecified)
    101, 105, 7, -36
(2) CN1CCN(c2ccccc2NC(=O)c2cccnc2Sc2ccccc2)CC1
    105, 107, -4, -20
(3) CCOc1ccc(NC(=S)NC(C)(C)C)cc1
    96, 99, 12, -6
(4) CSc1ncccc1C(=O)Nc1ccnn1Cc1ccccn1
    107, 98, -1, -44
(5) Cc1ccc(/C=N\NC(=O)c2cc(C)oc2C)cc1
    100, 100, 2, 3
(6) CC1CCCC(C)N1CC(O)Cn1cc(/C=N/O)c2ccccc21 (stereo unspecified)
    103, 105, -3, -11
(7) CC(=O)N1CCC(N(c2ccc3c(c2)OCO3)S(=O)(=O)c2ccccc2)CC1
    102, 103, -5, -9
(8) N#Cc1c(N)nc(SCC(=O)c2ccc(Cl)cc2)c(C#N)c1-c1ccco1
    97, 110, -19, 3
(9) Cc1cc(C)c(Cn2cccc2C2=NC(C(C)C)CO2)c(C)c1 (stereo unspecified)
    100, 101, -11, -18
(10) O=c1[nH]c2sc3c(c2c(=O)n1-c1ccccc1)CCCC3
    102, 104, 6, -52
(11) CCOC(=O)N1CCN(C(=O)CN2C(=O)c3cc(Cl)c(Cl)cc3C2=O)CC1
    102, 105, 1, -7
(12) CC(C)COC(=O)c1c(N)n(-c2ccc(S(N)(=O)=O)cc2)c2nc3ccccc3nc12
    nt, nt, 23, -28
(13) CC[N+]1(C)CCCC(OC(=O)C(O)(c2ccccc2)c2ccccc2)C1 (stereo unspecified)
    99&102, 100&98, -3&-9, 10&3
(14) Cc1ccc(C)c(S(=O)(=O)Nc2ccccc2C(=O)OCc2nnc(-c3ccccc3)o2)c1
    109, 104, 27, 0
(15) S=C(Nc1ccc2c(c1)OCCO2)Nc1ccccc1N1CCOCC1
    106, 110, -8, 6
(16) CCOC(=O)NS(=O)(=O)c1ccccc1
    105, 108, -1, nt
(17) NC(=O)N/N=C/CCc1ccccc1
    102, 100, -2, -1
(18) Cn1c(-c2ccc3nc(-c4ccc(N)cc4)[nH]c3c2)nc2cc(N)ccc21
    98, 100, nt, -18
(19) NCc1nc2ccccn2c1Br
    102, 106, -11, nt
(20) COc1cccc(/C=C2\CCC(C3CCCC3)C2=O)c1OC (stereo unspecified)
    98, 103, 12, -19
(21) CN(C)c1nc(C2CC2)nc2c1nnn2Cc1ccccc1Cl
    104, 104, 7, 38*
(22) CC(=O)Nc1cccc(C(=O)NCC2(N3CCCCC3)CCCCC2)c1
    101, 108, 24, 6
(23) COc1ccc(C(=O)OCC(=O)N2C(C)CCCC2C)cc1 (stereo unspecified)
    102, 109, -7, -2
(24) Cc1ccc(/C=C2\Sc3ccccc3C2=O)c(O)c1
    112, 109, 1, nt
(25) O=C(O)c1cccc(NCc2ccc3c(c2)OCO3)c1
    102, 109, nt, -8
(26) Cc1cc(C)c2c(c1)c1nc3ccccc3nc1n2CC(=O)O
    101, 104, -2, -43
(27) O=C(c1cccs1)C(O)c1c[nH]c2ccccc12 (stereo unspecified)
    101, 102, 0, -37
(28) O=C(c1ccc2c(c1)C(=O)c1ccccc1-2)c1ccccc1Br
    105, 103, -3, -5
(29) Cc1ccc(C2CC(c3ccccc3)=Nc3ccccc3S2)cc1 (stereo unspecified)
    106, 108, -1, -1
(30) CCOC(=O)c1oc2ccccc2c1COC(=O)CSc1nc(C)cc(C)n1
    96, 103, -3, -10

Reformatted field by field: entries from further up.
17: NC(=O)N/N=C/CCc1ccccc1
  Polio RdRp inh = 102
  Polio RdRp inh intensity = 100
  Mtb MbtI inh = -2
  Mtb MenB inh = -1
6: CC1CCCC(C)N1CC(O)Cn1cc(/C=N/O)c2ccccc21 (stereo unspecified)
  Polio RdRp inh = 103
  Polio RdRp inh intensity = 105
  Mtb MbtI inh = -3
  Mtb MenB inh = -11

Molecules listed so far that have an NH in an aromatic ring:
Every second line gives: Polio RdRp inh, Polio RdRp inh intensity, Mtb MbtI inh, Mtb MenB inh
(10) O=c1[nH]c2sc3c(c2c(=O)n1-c1ccccc1)CCCC3
    102, 104, 6, -52
(18) Cn1c(-c2ccc3nc(-c4ccc(N)cc4)[nH]c3c2)nc2cc(N)ccc21
    98, 100, nt, -18
(27) O=C(c1cccs1)C(O)c1c[nH]c2ccccc12 (stereo unspecified)
    101, 102, 0, -37

Three compounds already listed, ordered by length of the SMILES, highest first.
Every second line gives: Polio RdRp inh, Polio RdRp inh intensity, Mtb MbtI inh, Mtb MenB inh
(21) CN(C)c1nc(C2CC2)nc2c1nnn2Cc1ccccc1Cl
    104, 104, 7, 38*
(25) O=C(O)c1cccc(NCc2ccc3c(c2)OCO3)c1
    102, 109, nt, -8
(4) CSc1ncccc1C(=O)Nc1ccnn1Cc1ccccn1
    107, 98, -1, -44

Further structures follow.
Every second line gives: Polio RdRp inh, Polio RdRp inh intensity, Mtb MbtI inh, Mtb MenB inh
(31) Cc1ccccc1-n1nc2c(c1NC(=O)C(C)C)CSC2
    101, 102, -21, -24
(32) O=C(NCN1CCN(c2ccccc2F)CC1)c1ccccc1
    103, 102, -2, 9
(33) CSc1nc2c(sc3ccccc32)c(=O)n1-c1ccc(C)cc1
    104, 106, 33, -13
(34) C=CCOC(=O)c1c(N)oc2c(-c3ccccc3)c3c(C(=O)OCC=C)c(N)oc3cc12
    99, 101, i, -6
(35) CCC(=O)Oc1ccc(C=C2C(=O)NC(=O)NC2=O)cc1OC
    98, 101, 24, -18
(36) CC(=O)N1c2ccccc2C=Cc2ccccc21
    98, 99, 5, 3
(37) COc1ccc2c(CCNC(=O)Nc3ccccc3)c[nH]c2c1
    102, 103, -16, -18
(38) CC(C)NC(=O)/C=C/c1ccc2c(c1)OCO2
    102, 103, -206, -9
(39) CCCc1c(C(=O)NCc2ccc3c(c2)OCO3)cnn1-c1ccccc1
    105, 106, -8, -3
(40) N#CCCn1cnc2ccccc21
    104, 110, -7, nt
(41) CO/N=C(/C)c1ccc2c(c1)CCO2
    102, 103, 1, 4
(42) Cn1c(CC(=O)Nc2ccccc2F)nnc1SCC(=O)N1CCOCC1
    103, 105, 4, 7
(43) CC(C)C(=O)Nc1ccc2nc(SCc3cc(=O)n4nc(C(C)C)sc4n3)sc2c1
    101, 105, -11, -12
(44) CC(Oc1ccc(Cl)cc1Cl)C(=O)N1CCN(C(=O)c2ccco2)CC1 (stereo unspecified)
    101, 101, -1, 24
(45) O=C(CCCN1C(=O)c2ccccc2C1=O)Oc1ccccc1
    105, 104, -2, -12
(46) COc1ccc(-n2c(=S)[nH]c3cc(C(=O)NCc4ccco4)ccc3c2=O)cc1
    102, 101, 11, -21
(47) Nc1nc2ccccc2n2nnnc12
    103, 116, 101, 8
(48) Oc1ccccc1C=Nc1ccc(-c2nc3ccccc3s2)cc1
    103, 107, 111, -25
(49) Cc1ccc(Nc2nc(N)nc(COC(=O)c3ccccc3NS(C)(=O)=O)n2)cc1
    109, 112, 3, 4
(50) C=CCn1c(=N)n(CC(=O)O)c2ccccc21
    100, 101, 1, 10
(51) COC(=O)c1cccc(C(=O)OC)c1Cl
    100, 104, 2, 2
(52) O=C(N/C(=C/c1ccc2c(c1)OCO2)C(=O)N1CCOCC1)c1ccc(Br)cc1
    99, 104, 1, -9
(53) COc1ccc(-c2noc(CC(=O)N3CCc4ccccc43)n2)cc1
    104, 105, -32, -11
(54) Cc1cc(N2CCN(c3ccccn3)CC2)nc2c(C)cccc12
    nt, nt, 9, 14
(55) CCOC(=O)c1c(C)oc2ncnc(Nc3ccccc3)c12
    104, 102, -26, -15
(56) COC(=O)C1CN(C(=O)Cc2coc3cc4c(cc23)CCC4)c2ccccc2O1 (stereo unspecified)
    108, 119, -13, -29
(57) COc1ccc(Br)cc1CNC(=O)CS(=O)(=O)Cc1nc(-c2ccc(C)cc2)oc1C
    101, 101, -4, -16
(58) O=C(Nc1ccc2c(c1)OCCO2)C1(c2ccccc2)CCOCC1
    105, 106, nt, 0
(59) Cc1ccnc(NC(=O)c2ccccc2NC(=O)c2ccccc2)c1
    101, 104, 3, 13
(60) CCOC(=O)C1CCCN(C(=O)COc2cccc(Br)c2)C1 (stereo unspecified)
    101, 98, 1, nt

Continued.
no. | Molecule | Polio RdRp inh | Polio RdRp inh intensity | Mtb MbtI inh | Mtb MenB inh
61 | CCOC(=O)c1ccccc1NC(=O)c1ccc(F)cc1 | 100 | 102 | -2 | 16
62 | C1CCN(C2=NCCS2)CC1 | 106 | 112 | -7 | 5
63 | CCOC(=O)c1c(-c2ccc(OC)cc2)csc1NC(=O)CNCc1ccco1 | 99 | 102 | 2 | -50
64 | CCN(C(=S)NCc1ccccc1)C1CCCCC1 | 109 | 110 | nt | -23
65 | O=C(OC1CCCC1=O)c1cc(-c2ccco2)nc2ccccc12 (stereo unspecified) | 105 | 103 | 98 | -23
66 | CCn1c(CSc2nc3ccccc3n2CCOC)nc2cc(S(=O)(=O)N(C)C)ccc21 | 102 | 109 | 0 | -42
67 | O=C(Cc1ccccc1)NC1CCN(C(=O)C2CCC2)CC1 | 105 | 93 | -7 | 1
68 | CC1(C)Cc2cccc(Oc3nnnn3-c3ccccc3)c2O1 | 101 | 100 | 13 | -11
69 | CN(Cc1ccccc1)C(=O)Cn1ncn2nc(-c3cccs3)cc2c1=O | 102 | 103 | 9 | -2
70 | CC1=NN(c2nnc(C)c(=O)[nH]2)C(=O)/C1=C\c1ccc(N(C)C)cc1 | 106 | 108 | nt | -2
71 | O=C(Nc1ccccc1C(=O)NCCN1CCOCC1)c1cccs1 | 106 | 102 | -15 | -46
72 | Cc1ccn2c(NC(=O)CN3CSCC3=O)c(-c3ccccc3)nc2c1 | 105 | 109 | 5 | -2
73 | Cc1cc(C)nc(NCCCO)n1 | 99 | 105 | 114 | 1
74 | NC(=O)C1CCN(C(=O)CCSc2ccc(Cl)cc2)CC1 | 107 | 101 | -5 | -44
75 | CC1CCCC(NC(=O)Cn2cnc3onc(-c4ccc(Cl)cc4)c3c2=O)C1C (stereo unspecified) | 102 | 103 | -4 | -13
76 | CCn1cc(CCC(=O)NCc2ccco2)c2ccccc21 | 105 | 106 | -27 | -25
77 | CCCCCC(=O)Nc1ccc(C(=O)COC(=O)c2cnc(C)cn2)cc1 | 104 | 99 | 10 | 9
78 | CC(C)NC(=S)Nc1ccc2cn[nH]c2c1 | 99 | 104 | -13 | -19
79 | CC(C)N(C=O)C1(C(=O)NC2CCCCC2)CCCCC1 | 102 | 103 | -5 | -23
80 | Cc1c(/C=N/N=C2/C(=O)N(Cc3ccccc3)c3ccccc32)cc(C#N)n1C | 102 | 108 | -3 | -37

Compounds listed so far with fluorine, in the order listed:
no. | Molecule | Polio RdRp inh | Polio RdRp inh intensity | Mtb MbtI inh | Mtb MenB inh
32 | O=C(NCN1CCN(c2ccccc2F)CC1)c1ccccc1 | 103 | 102 | -2 | 9
42 | Cn1c(CC(=O)Nc2ccccc2F)nnc1SCC(=O)N1CCOCC1 | 103 | 105 | 4 | 7
61 | CCOC(=O)c1ccccc1NC(=O)c1ccc(F)cc1 | 100 | 102 | -2 | 16

(continued)
no. | Molecule | Polio RdRp inh | Polio RdRp inh intensity | Mtb MbtI inh | Mtb MenB inh
81 | O=C(Nc1ccccc1Cl)c1cc2ccccc2cc1O | 102 | 107 | -156 | -29
82 | ON=C1/C(=N\O)CC2(C/C1=N/O)OCCO2 | 99 | 101 | 6 | -23
83 | CCN(Cc1ccccc1)Cc1nnc(-c2ccccc2)o1 | 102 | 101 | 8 | -1
84 | Cc1ccc(C(=O)NCCc2cc3cc(C)c(C)cc3[nH]c2=O)cc1 | 96 | 96 | 7 | -8
85 | Cc1cc(Nc2ccc(N(C)C)cc2)n2c(nc3ccccc32)c1C#N | 107 | 101 | -4 | -36
